Compound activity: PubChem, several laboratories
PKD1 kinase inh: inhibitors of human PKD1 kinase, biochemical, fluorescence polarization; Serine/threonine-protein kinase D1 (Homo sapiens), Q15139; PKD1 kinase fluorescence polarization assay; inhibition, %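 (about 10 µM by stock and volumes)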; actives 0.056% (n = 200,000);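 active means inhibition of 50% or more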;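 further: controls were vehicle for no effect and a reference inhibitor for full effect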
HSV augment: enhancers of HSV replication in host cells, fold increase, host cell viability. maximum fold increase. actives 0.005% (n = 220,000). HSV replication augmentation in cells;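 active means peak rise of 1.5-fold or more in the series; inconclusive means self-fluorescent or not available for retest; tested in PC3 cells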;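 further: first round at 10 µM; read as green reporter fluorescence; hits show the peak of a series up to 25 µM; 1 = signal of infected wells without compound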
RGS16-Gao: modulators of RGS16 binding to Galphao, primary screen, biochemical, human proteins, multiplexed bead flow cytometry | bead-based flow cytometry RGS16-Galphao binding, fluorescence; actives lie on both sides | binding response (% of control), % at 10 µM | actives 0.38% (n = 220,000) | AID 1441, 2008;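 active means below 25% or above 175%, edge rows of some plates excepted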;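 further: Galphao activated by GDP with aluminum fluoride before binding; 100% = wells without compound and 0% = beads without RGS; some results beyond the cut were filed as inactive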
Target sequence (O15492 whole entry, looked up): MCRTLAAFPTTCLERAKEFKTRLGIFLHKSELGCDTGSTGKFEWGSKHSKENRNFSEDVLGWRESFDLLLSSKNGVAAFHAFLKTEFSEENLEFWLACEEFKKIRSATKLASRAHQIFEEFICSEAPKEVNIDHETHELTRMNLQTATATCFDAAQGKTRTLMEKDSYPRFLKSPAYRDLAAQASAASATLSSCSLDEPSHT
Target sequence (P09471 whole entry, looked up): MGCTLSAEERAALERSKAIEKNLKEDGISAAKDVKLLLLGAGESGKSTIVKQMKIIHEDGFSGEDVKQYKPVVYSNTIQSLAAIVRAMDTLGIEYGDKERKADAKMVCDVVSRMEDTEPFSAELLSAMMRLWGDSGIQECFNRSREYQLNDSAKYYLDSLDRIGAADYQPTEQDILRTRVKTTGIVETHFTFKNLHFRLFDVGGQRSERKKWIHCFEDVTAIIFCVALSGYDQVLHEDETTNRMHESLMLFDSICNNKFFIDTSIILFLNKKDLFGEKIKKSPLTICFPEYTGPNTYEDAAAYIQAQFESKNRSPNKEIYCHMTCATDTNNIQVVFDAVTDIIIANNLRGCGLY
Insulin prom inh: inhibitors of insulin promoter-driven GFP, primary screen, imaging, TRM-6 cells (human fetal islet line), eGFP reporter, cell count; reporter expression induced with tamoxifen; actives 0.9% (n = 130,000); inhibition, % at 2 µM;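 active means inhibition above the mean plus 3 SD, with well images judged a real hit on visual review, cut at about 60% in these data, passing the limit was not always enough; inconclusive means inhibition over the cutoff but images rejected on review; inactive means inhibition not above the cutoff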
GALR2 agonist: GALR2 receptor agonists, primary screen, cell-based | Galanin receptor type 2 (Homo sapiens), O43603 | GALR2-expressing cells, agonist activation read-out | activation, %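 (tested at 5 µM)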 | actives 0.48% (n = 140,000) | AID 803, 2007;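 active means above mean plus 3 SD of all compounds, about 5% in these data, not always enough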;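 further: 0% = vehicle buffer wells and 100% = reference agonist at full effect; tested in CHO reporter cells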
Target sequence (O43603 whole entry, looked up): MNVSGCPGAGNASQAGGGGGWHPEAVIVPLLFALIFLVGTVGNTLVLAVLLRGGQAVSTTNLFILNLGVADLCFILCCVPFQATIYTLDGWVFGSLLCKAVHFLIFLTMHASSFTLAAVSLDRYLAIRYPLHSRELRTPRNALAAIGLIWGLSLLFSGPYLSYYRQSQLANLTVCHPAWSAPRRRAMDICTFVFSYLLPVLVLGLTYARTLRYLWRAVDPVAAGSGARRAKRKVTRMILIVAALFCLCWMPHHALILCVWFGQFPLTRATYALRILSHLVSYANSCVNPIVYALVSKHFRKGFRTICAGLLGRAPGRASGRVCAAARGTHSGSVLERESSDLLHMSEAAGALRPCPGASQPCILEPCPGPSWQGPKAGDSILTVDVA
Insulin prom inh cell count: second read-out of Insulin prom inh, no call of its own (marks repeat the call); normalized cell count, %; measured here: cell count, toxicity; reference of the scale not given here;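 cells exposed to compound for 48 h; stained nuclei by imaging scaled within each plate; lower means fewer cells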
HSV augment primary fold: further read-out of HSV augment, marked with its call; fold increase; compound at 10 µM; measured here: primary screen fold increase 10 uM; tested in PC3 cells;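 GFP signal in the first replicate; 1 = infected wells without compound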
The depositor's hits bear a star; i = inactive; u = inconclusive; x = not tested or not shown.

Order of results: PKD1 kinase inh	HSV augment	HSV augment primary fold	RGS16-Gao	Insulin prom inh	Insulin prom inh cell count	GALR2 agonist
1) NC(=S)n1[nH]c(-c2ccc([N+](=O)[O-])cc2)c(N=Nc2ccccc2[N+](=O)[O-])c1=O
→ -6	i	0.94	104	-13	112	x
2) CCOc1cc(N2CCOCC2)c(OCC)cc1NC(=O)[C@H](C)N1C(=O)C2CC=CCC2C1=O (stereo partly specified)
→ -8	i	0.97	95	x	x	x
3) CCOC(=O)c1cnc2c(Cl)cccc2c1NCCN1CCOCC1
→ -4	i	1.1	70	10	120	0.7
4) COc1ccc(C2N(c3cc(Cl)ccc3OC)C(=O)C3CCCN32)cc1 (stereo unspecified)
→ 2	i	0.82	110	x	x	-2.8
5) O=C1C2C(c3ccccc3)CC=CC2[C@H](c2ccoc2)N1Cc1ccccc1 (stereo partly specified)
→ x	i	0.87	97	x	x	x
6) COc1ccc(NC(=O)CSc2nc(C)cs2)cc1
→ -5	i	0.97	106	x	x	x
7) c1coc(CNc2ncnc3sc4c(c23)CCCCC4)c1
→ 6	i	0.9	104	12	129	-2.2
8) CC(C)(C)NC(=O)NC(=O)COC(=O)c1ccc2c(c1)S(=O)(=O)N=C1CCCCCN12
→ -4	i	1	99	48	103	0.4
9) Cc1ccc(CCNc2ccccc2)c[n+]1[O-]
→ -8	i	0.75	109	17	93	-1.2
10) CCc1nc(NCCCCCO)c2nnn(Cc3ccccc3F)c2n1
→ -5	i	0.82	107	61	167	-2.6
11) CC1(C)CC(=O)C2=C(C1)OC(N)=C([N+](=O)[O-])C2c1cccs1 (stereo unspecified)
→ -4	i	1.1	105	27	84	-0.7
12) Cc1nc2cc(O)ccc2n1C
→ -13	i	1	101	x	x	-2.1
13) N#CCSc1nc2ccccc2c(=O)n1CCCC(=O)NCC1CCCO1 (stereo unspecified)
→ -5	i	0.99	100	26	81	x
14) CCOC(=O)Cn1nnnc1CN(Cc1cccs1)Cc1cc2cc(C)cc(C)c2[nH]c1=O
→ -11	x	x	102	-58	85	0.5
15) O=C(Nc1nnc(-c2cccnc2)o1)c1cccc([N+](=O)[O-])c1
→ 2	i	0.92	99	x	x	x
16) CC(C)=C(NC(=O)c1ccccc1)C(N)=O
→ x	i	1.1	110	x	x	x
17) O=c1cc(O)sc2ccccc12
→ 9	i	0.83	83	x	x	-2.0
18) O=c1nc(-c2ccccc2)cc(-c2ccccc2)[nH]1
→ -3	i	0.89	98	x	x	-0.1
19) Cc1nc(SCC(=O)NCc2ccco2)c2c3c(sc2n1)CCCC3
→ -2	i	0.91	102	x	x	-0.2
20) CCOc1cc(C(=O)NC(C)C2CCCO2)cc(OCC)c1OCC (stereo unspecified)
→ 3	i	0.96	100	x	x	x
21) Cc1nn(-c2ccccc2)c(Cl)c1C(=O)OC(C)C(=O)Nc1ccc2c(c1)OCO2 (stereo unspecified)
→ -1	i	0.95	99	-11	93	-0.9
22) CC(OC(=O)c1ccc(S(=O)(=O)NCc2ccco2)cc1)C(=O)Nc1ncc(Cl)cc1Cl (stereo unspecified)
→ -10	i	1	103	-83	108	-0.8
23) Cc1nn(Cc2ccc(C(=O)n3cccn3)o2)c(C)c1Br
→ -4	i	0.97	89	27	145	-1.4
24) CCC(=O)c1c(OCc2ccccc2)ccc2c(C)cc(=O)oc12
→ 6	i	0.93	100	7	89	x
25) Cc1ccc(CCN2CC(C(=O)NC3CCCC3)CC2=O)cc1 (stereo unspecified)
→ -28	i	0.89	103	27	101	-3.7
26) Cc1cc(C)n(Cc2ccc(C(=O)Nc3ccc(Br)cc3C)o2)n1
→ -9	i	0.94	104	-43	97	0.0
27) CC1=C(C#N)C(c2ccc(O)cc2)C(C#N)=C(C)N1
→ x	i	0.96	101	x	x	x
28) CCOC(=O)CC1=NN(c2ccccc2)C(=O)C1
→ -1	i	1.1	104	x	x	x
29) Cc1ccccc1OCc1nnc(SCC(=O)Nc2ccc3c(c2)oc2ccccc23)n1C
→ 1	i	0.7	103	-25	98	-1.3
30) CCOC(=O)c1sc(NC(=O)Nc2ccccc2)cc1C
→ 3	i	0.86	103	-14	60	-0.6
31) CCOC(=O)C1=C(C)NC(=O)NC1c1ccc(-c2ccc(Cl)cc2)o1 (stereo unspecified)
→ 6	i	1.1	103	x	x	x
32) CSc1ccc(CN2CCN(CCC(C)C)C(CCO)C2)cc1 (stereo unspecified)
→ 1	i	1.1	101	x	x	x
33) COc1ccc2nc(NC(=O)CCN3C(=S)NC(C)(C)CC3C)sc2c1 (stereo unspecified)
→ -11	i	0.92	100	-29	97	-0.3
34) CCC(=O)Nc1nc(-c2ccc3c(c2)CC(C)N3S(C)(=O)=O)cs1 (stereo unspecified)
→ -2	i	0.88	106	x	x	x
35) c1cc(CNc2ccc(N3CCOCC3)cc2)ccn1
→ -6	i	1	95	-25	132	-2.1
36) Cc1cc(C)c(C#N)c(N)n1
→ -4	i	0.92	x	53	108	x
37) COc1ccc(CNC(=O)C(=O)NC2CC(C)(C)NC(C)(C)C2)cc1
→ -1	i	1	96	x	x	x
38) CN1CCN(c2nc(C(N)=O)cc(-c3ccccc3)n2)CC1
→ 4	i	1	97	12	125	-0.5
39) COc1cc(/C=C(\NC(=O)c2ccccc2)C(=O)Nc2cccc(O)c2)c([N+](=O)[O-])cc1OC
→ -1	i	0.9	99	-19	100	-3.0
40) CCOC(=O)C1=NOC(COc2ccccc2C=O)C1 (stereo unspecified)
→ 4	i	1	105	32	98	x
41) Cc1cccc(-n2c(=O)c3c(C)c(C)sc3n(CC(N)=O)c2=O)c1
→ -2	i	1.1	111	x	x	x
42) Cc1sc(N/N=C/c2ccco2)nc1-c1ccccc1
→ 2	i	0.92	113	15	86	-1.1
43) CCCN(CCC)c1ccc(/C=C/c2ccc3cc(OCC)ccc3n2)cc1
→ x	u	x	107	x	x	x
44) Cc1ccc(C)c2c(N)c3c(nc12)CCCCC3 (tested in a mixture with another compound)
→ 6	i	0.94	96	29	69	x
45) O=C(NCC1CCC(C(=O)O)CC1)c1cccnc1 (stereo unspecified)
→ -8	i	0.99	98	44	84	2.1

Among those listed so far, these have a Cl atom.
Order of results: PKD1 kinase inh	HSV augment	HSV augment primary fold	RGS16-Gao	Insulin prom inh	Insulin prom inh cell count	GALR2 agonist
3) CCOC(=O)c1cnc2c(Cl)cccc2c1NCCN1CCOCC1
→ -4	i	1.1	70	10	120	0.7
4) COc1ccc(C2N(c3cc(Cl)ccc3OC)C(=O)C3CCCN32)cc1 (stereo unspecified)
→ 2	i	0.82	110	x	x	-2.8
21) Cc1nn(-c2ccccc2)c(Cl)c1C(=O)OC(C)C(=O)Nc1ccc2c(c1)OCO2 (stereo unspecified)
→ -1	i	0.95	99	-11	93	-0.9
22) CC(OC(=O)c1ccc(S(=O)(=O)NCc2ccco2)cc1)C(=O)Nc1ncc(Cl)cc1Cl (stereo unspecified)
→ -10	i	1	103	-83	108	-0.8
31) CCOC(=O)C1=C(C)NC(=O)NC1c1ccc(-c2ccc(Cl)cc2)o1 (stereo unspecified)
→ 6	i	1.1	103	x	x	x

Continuation.
Order of results: PKD1 kinase inh	HSV augment	HSV augment primary fold	RGS16-Gao	Insulin prom inh	Insulin prom inh cell count	GALR2 agonist
46) O=C(NNC(=O)c1ccccc1Br)c1cccc(Cl)c1
→ 6	i	0.91	96	-3	67	-0.6
47) CCOC(=O)c1cccc(S(=O)(=O)N(CCO)Cc2cc3cc(OC)c(OC)cc3[nH]c2=O)c1
→ 6	i	0.83	104	x	x	-0.5
48) COc1cc(/C=N/NC(=O)c2cccnc2)ccc1OC(=O)c1ccc2c(c1)OCO2
→ 3	i	1.1	90	x	x	-4.2
49) CCc1ccc2oc(-c3cccc(N)c3)nc2c1
→ -9	i	0.78	88	-14	165	-1.8
50) CCOC(=O)/C=c1\s/c(=C(\C#N)C(=O)OCC)n(-c2ccccc2)c1=O
→ 6	i	1.1	100	x	x	-2.6
51) O=C(Cn1nnc(-c2ccc(CN3CCOCC3)cc2)n1)N(c1ccccc1)c1ccccc1
→ 8	i	0.91	96	6	136	x
52) COc1ccc([N+](=O)[O-])cc1NC(=O)Cc1noc2ccccc12
→ -9	i	0.95	104	x	x	x
53) CCOc1ccccc1C1C(C(N)=O)=C(C)Nc2nc(-c3ccccc3Cl)nn21 (stereo unspecified)
→ -4	i	0.87	72	x	x	-1.2
54) Cc1ccnc(NC(=O)Nc2ccc(F)cc2)c1
→ -10	i	0.85	97	-26	132	-3.1
55) COc1ccc(C(=O)Nc2ccc(-c3ccc(NC(=O)c4ccc(OC)cc4)c(OC)c3)cc2OC)cc1
→ 7	i	1	100	28	134	6.2*
56) CC1=NN(c2ccccc2)C(=O)/C1=C/C=C/c1ccccc1
→ 9	i	0.58	94	23	75	-2.4
57) O=C1NCCCCC1NC1CC(=O)N(c2ccccc2)C1=O (stereo unspecified)
→ -8	i	1	103	x	x	-1.1
58) O=C(Nc1ccc(N2CCN(Cc3ccccc3)CC2)cc1)c1cccnc1
→ -5	i	0.81	119	-83	71	-3.1
59) CCN1C(=O)C2C(C1=O)N1C(c3ccccc3)C3C(=O)N(CC)C(=O)C3N1C2c1ccccc1 (stereo unspecified)
→ -4	i	0.95	102	-26	81	-1.3
60) CN=C1CC(C)(C)CC(=O)/C1=C(/O)CCC(=O)NC
→ -3	i	1	99	0	106	-1.7

(list continues)
no.	structure	PKD1 kinase inh	HSV augment	HSV augment primary fold	RGS16-Gao	Insulin prom inh	Insulin prom inh cell count	GALR2 agonist
61	O=C(CCc1nnc(CCc2ccccc2)o1)N1CCCC1c1nccs1 (stereo unspecified)	1	i	0.97	100	x	x	x
62	CCC(C)NC(=O)CSc1nc2ccsc2c(=O)n1-c1ccc(OC)cc1 (stereo unspecified)	-3	i	0.95	111	-32	195	-1.2
63	N#Cc1cnc(SCC(=O)Nc2ccccc2C(F)(F)F)nc1N	-6	i	0.8	90	-16	111	-1.5
64	CCC(=O)N(CCO)Cc1cc2ccc(C)c(C)c2[nH]c1=O	1	i	1	77	26	83	-1.7
65	O=C(COC(=O)c1cc(-c2ccc(F)cc2)nc2ccccc12)NCC1CCCO1 (stereo unspecified)	1	i	0.94	105	-25	91	x
66	COc1ccc(CNC(C)C(=O)Nc2ccc3ccccc3c2)cc1OC (stereo unspecified)	-1	i	1	98	x	x	x
67	CCc1cccc(C)c1NC(=O)CN(C)Cc1ccccc1F	-6	i	0.97	64	-13	104	-0.6
68	C/C(N)=C(/C#N)C(=O)COC(=O)CCSc1ccccc1	1	i	0.93	125	-8	146	2.0
69	O=C(NC1CCCCC1)NC1CCN(CC(=O)N2CCOCC2)CC1	-11	i	0.88	112	x	x	-2.1
70	NC(=O)c1ccsc1NC(=O)CN1C(=O)C2CC=CCC2C1=O (stereo unspecified)	7	i	0.79	103	x	x	-1.7
71	Cc1ccc(-c2nnc(SCC#N)n2N)cc1	-4	i	0.92	105	46	77	-1.7

Full records from above.
C/C(N)=C(/C#N)C(=O)COC(=O)CCSc1ccccc1 across the screens: PKD1 kinase inh: 1; HSV augment: i; HSV augment primary fold: 0.93; RGS16-Gao: 125; Insulin prom inh: -8; Insulin prom inh cell count: 146; GALR2 agonist: 2.0
Cc1ccc(-c2nnc(SCC#N)n2N)cc1 across the screens: PKD1 kinase inh: -4; HSV augment: i; HSV augment primary fold: 0.92; RGS16-Gao: 105; Insulin prom inh: 46; Insulin prom inh cell count: 77; GALR2 agonist: -1.7
